# MT1-MMP act inh: MT1-MMP (human) activation inhibition | P50281 | HT1080 RFP-PRO-GFP cells, GFP/RFP ratio fluorescence, overnight; percent of plate control window, DMSO zero | GFP/RFP ratio change, % at 20 µM | 360,000 tested, 0.061% active | AID 651647;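 active = GFP/RFP ratio change of at least 30% with cell ATP level not reduced by more than half and red fluorescence within 50% of control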; also: strong numbers were not always called active
#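 Material – HT1080 RFP-PRO-GFP cells · Control set – DMSO wells and RFP-L50D-GFP cells · Incubation – overnight cell settling, then overnight compound exposure, 37 °C, 5% CO2 · Compound dosing – single-point 20 µM compound, 1% DMSO · Read-out – GFP/RFP fluorescence ratio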
# Env fusion inh: HIV envelope-mediated fusion inhibition; HeLa-JRFL Env/CEM21 cell fusion, luciferase; AID 651610; inhibition, % at 12.3 µM; 360,000 tested, 1.1% active;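 active = mean replicate inhibition score of at least 50 and every replicate individually at or above 50; inconclusive = only one of the two criteria met; inactive = mean below 50 and not all replicates reaching 50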;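 also: 0% = plate neutral controls and 100% = maraviroc near 300 nM; one replicate is shown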
# Yeast UUG start: yeast start codon fidelity modulation | 350,000 tested, 0.13% active | activity score, % at 18.7 µM | S. cerevisiae UUG-firefly luciferase reporter, luminescence/redox ratio;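 active = replicate mean at a twofold rise or more, about +100% in these data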;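 also: firefly luciferase made from a UUG start codon reports start codon fidelity; reporter light over untreated wells divided by growth signal over untreated wells; some hits fall short of that in this replicate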
# Rce1 inhib: blocks yeast Ras-converting enzyme; AID 2563; 290,000 tested, 0.27% active; yeast membranes, quenched prenylated peptide cleavage fluorescence; calls only;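 active = fall in fluorescence gain of 50% or more versus controls, with final raw signal at or below 3038400; inconclusive = same 50% fall but final raw signal above 3038400; inactive = fall in fluorescence gain under 50%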;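 also: plate controls were neutral control wells for no effect and wells lacking membranes for full effect; tested at 10 µM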
# Target sequence (Q03530 whole entry, looked up): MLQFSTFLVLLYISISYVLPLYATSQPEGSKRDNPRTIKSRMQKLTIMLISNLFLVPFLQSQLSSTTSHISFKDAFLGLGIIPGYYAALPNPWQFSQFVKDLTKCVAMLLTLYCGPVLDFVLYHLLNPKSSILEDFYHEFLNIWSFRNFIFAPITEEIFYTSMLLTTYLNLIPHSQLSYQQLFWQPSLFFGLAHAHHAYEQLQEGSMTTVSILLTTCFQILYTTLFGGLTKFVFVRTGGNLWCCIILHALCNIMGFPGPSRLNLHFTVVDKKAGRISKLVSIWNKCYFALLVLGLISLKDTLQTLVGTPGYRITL
# PABP FP inh: PABP-poly(A) binding inhibition; PABP-poly(A) RNA binding, fluorescence polarization; inhibition, % at 35 µM; P11940; AID 2014; 290,000 tested, 1% active;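 active = 50% or more with normal probe brightness, or confirmed in later tests; inconclusive = above 50% with abnormal brightness, or retests that disagree; inactive = below 50% or failed in later tests; about a fifth of its hits are not listed in these tables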;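 also: calls also rest on retests at 20 µM and on dose response follow-up; controls were probe without protein and protein plus probe with vehicle; some compounds called inactive have numbers as strong as hits; many hits fall short of the cut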
# eIF4H FP inh: inhibitors of RNA binding by human eIF4H | Q15056 | eIF4H fluorescence polarization binding assay | inhibition, % at 35 µM | 290,000 tested, 0.94% active | AID 2012;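 active = 50% or more with normal probe brightness, or confirmed in later tests; inconclusive = above 50% with abnormal brightness, or retests that disagree; inactive = below 50% or failed in later tests; about a fifth of its hits are not listed in these tables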;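 also: calls also rest on retests at 20 µM and on dose response follow-up; 0% = protein and probe with vehicle and 100% = probe without protein; strong numbers were not always called active; many hits fall short of the cut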
# CSC inhib: blocks cancer stem cells. cancer stem cell-like cells viability, luminescence. inhibition, % at 7.5 µM. 300,000 tested, 1.1% active. AID 2717;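 active = mean at 75% or more and at least half the replicates too; inconclusive = mean and replicates disagree; tested in HMLE shEcad cells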;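 also: 0% = median of negative and 100% = median of positive control wells; the first replicate is given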
# eIF4H FP inh retest: second read-out of eIF4H FP inh, no call of its own (marks repeat the call); inhibition, %; compound at 20 µM; confirmation average;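 mean of two retest wells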
# PABP FP inh retest: also measured in PABP FP inh; calls as there; inhibition, %; compound at 20 µM; confirmation repeats;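 mean of two retest wells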
# MT1-MMP act inh RFP: second read-out of MT1-MMP act inh, no call of its own (marks repeat the call); RFP signal change, %; measured here: RFP expression control read;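 0 = vehicle wells; hits needed this value within 50% of zero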
# Active calls of the source: *; i = inactive; ? = inconclusive; nt = not tested or not shown; & = joins results of further samples. Some of the compounds tested; count on the stated rates, not on these rows.
SMILES,MT1-MMP act inh,MT1-MMP act inh RFP,Env fusion inh,Yeast UUG start,Rce1 inhib,PABP FP inh,eIF4H FP inh,CSC inhib,others
CC(C)N(C(=S)NC1CCCCC1)c1ccccc1,nt,nt,nt,nt,i,-10,2,-2,
O=C(c1ccc(Cn2c(=S)[nH]c3cc4c(cc3c2=O)OCO4)cc1)N1CCN(c2ccccc2)CC1,-7,-12,5,nt,nt,-10,-7,15,
COC(=O)c1csc(S(=O)(=O)N2CCOCC2)c1OC,2,6,8,5,i,-1,0,-15,
COC(=O)c1sccc1NC(=O)c1ccccc1F,-4,2,6,-5,i,-7,-11,-3,
COc1nc(NC(C)(C)C)nc(Oc2ccc(=O)n(C)n2)n1,4,9,-19,-8,i,-4,-2,nt,
COc1ccc(C(=O)Nc2cc(C)nn2-c2cccc(F)c2)cc1,-1,-1,10,nt,i,3,-12,-7,
O=S(=O)(NCCSc1ccc(Cl)cc1)c1ccc2c(c1)OCCO2,0,1,-14,-3,i,0,4,1,
O=C(Nc1ccc(Cl)cc1C(=O)O)c1ccc2c(c1)C(=O)N(Cc1ccco1)C2=O,2,1,-38,-11,i,31,13,9,
CCCN1C(=O)C2C(C(=O)Nc3cccc(OC)c3)C3C=CC2(O3)C1C(=O)NC1CCCCC1 (stereo unspecified),3,-4,-5,-7,i,-9,9,nt,
O=C(c1cccs1)N1CCN(S(=O)(=O)N2CCCCC2)CC1,3,-1,nt,-9,nt,3,1,-4,
O=S(=O)(c1ccc2c(c1)N(Cc1ccc(Cl)cc1)C1CCCN21)N1CCOCC1 (stereo unspecified),4,7,nt,-11,i,8,2,-17,
CCN(CC)S(=O)(=O)c1ccc(N2CCCC2)c(C(=O)OCC(=O)N2CCCC2)c1,1,2,20,-1,i,1,5,-6,
CCOCCCNC(=O)c1cc(C)nn1-c1ccccc1,-1,-1,-22,-23,i,51,6,-3,eIF4H FP inh retest=1;PABP FP inh retest=10
O=C(CCNS(=O)(=O)c1ccc(Cl)cc1)OCC(=O)N1CCN(C(=O)c2ccco2)CC1,4,4,-19,nt,i,nt,nt,12,
Cc1cnc(C(=O)OCC(=O)c2c(N)n(CC(C)C)c(=O)n(C)c2=O)cn1,-6,-9,8,nt,i,nt,nt,1,
Cc1ccc(NC(=O)CSc2nnc(-c3ccc(S(=O)(=O)N4CCCC4)cc3)o2)cc1C,2,-1,?,nt,nt,35,-6,nt,
Cc1ccn2c(NC(C)(C)C)c(-c3cccs3)nc2c1,3,-1,15,nt,i,-7,-4,-3,
CCOC(=O)Cc1csc(NC(=S)NC(=O)c2ccccc2Br)n1,3,6,13,-8,i,-1,5,1,
C=C(C)Cn1c(SCC(=O)N/N=C/c2ccccc2OCC(=O)O)nnc1-c1ccc(Br)cc1,3,3,4,-13,i,8,14,-20,
CN(Cc1ccco1)C(=O)Cn1ncc2c([nH]c3ccccc32)c1=O,3,4,9,-21,i,-6,5,-13,
CCc1cccc2c(/C=N/NC(=O)c3cccc(S(=O)(=O)Nc4ccccc4Cl)c3)c[nH]c12,-6,-2,29,nt,i,1,4,16,
CSc1ncc(C(=O)Nc2cccc(C)c2C)c(C)n1,-2,5,9,-6,i,-12,-4,7,
CC1=CC(C)(C)Nc2ccc(Cc3ccc4c(c3)C(C)=CC(C)(C)N4)cc21,2,-11,3,-14,i,13,0,12,
Cc1ccc(C(=O)N2CCN(c3ccc(NC(=O)Cc4ccccc4)cc3)CC2)cc1,10,4,0,0,i,-14,-4,-10,

# Reprinted from the part before: two compounds, followed by the next part.
SMILES,MT1-MMP act inh,MT1-MMP act inh RFP,Env fusion inh,Yeast UUG start,Rce1 inhib,PABP FP inh,eIF4H FP inh,CSC inhib,others
CC1=CC(C)(C)Nc2ccc(Cc3ccc4c(c3)C(C)=CC(C)(C)N4)cc21,2,-11,3,-14,i,13,0,12,
Cc1ccc(C(=O)N2CCN(c3ccc(NC(=O)Cc4ccccc4)cc3)CC2)cc1,10,4,0,0,i,-14,-4,-10,
NNC(=O)c1ccc(Oc2cc(Cl)cc(Cl)c2)o1,1,9,5,nt,i,9,2,nt,
COc1cc(S(=O)(=O)N2CCC(C(N)=O)CC2)c(C)cc1C,-1,5,nt,-8,i,3,1,10,
COc1ccccc1CC(=O)Nc1cccc(C(=O)Nc2nccs2)c1,-2,-4,16,-9,i,3,1,-6,
Cc1ccn2c(C(=O)NN=C3CCCCCCC3)c(C)nc2c1,4,4,23,nt,i,-6,-2,13,
COCCOC(=O)C1=C(C)OC(N)=C(C#N)C1c1ccc2c(c1)OCO2 (stereo unspecified),-1,3,nt,-7,i,-8,0,7,
Cc1ccc(NC(=O)CCN2C(=O)NC3(CCCC3)C2=O)cc1,4,6,4,-10,nt,nt,nt,nt,
COc1ccc(C(=O)OCC(=O)NCCCc2ccccc2)c(OC)c1,0,1,-2,-6,i,-2,-5,-10,
O=C(O)C1(P(=O)(c2ccc(Cl)cc2)c2ccc(Cl)cc2)CC1,-4,-2,-6,nt,i,2,2,-5,
Cc1ccc(OCCCC(=O)ON=C(N)c2ccccc2C)cc1,-2,-1,-3,-14,nt,nt,nt,-13,
COc1cc(-c2nc3c4ccccc4nc(=S)n3[nH]2)cc(OC)c1OC,29,0,9,-22,i,4,2,-20,
Cc1nnsc1-c1nnc(SCC(=O)c2ccc(F)cc2)n1C1CC1,0,2,-10,-15,i,6,-3,-10,
CC(C)NC(=S)N/N=C1\CCCCC1C1CCCCC1 (stereo unspecified),0,1,23,-10,i,-3,3,8,

# Quoted from above for reference:
SMILES,MT1-MMP act inh,MT1-MMP act inh RFP,Env fusion inh,Yeast UUG start,Rce1 inhib,PABP FP inh,eIF4H FP inh,CSC inhib,others
Cc1ccc(C(=O)N2CCN(c3ccc(NC(=O)Cc4ccccc4)cc3)CC2)cc1,10,4,0,0,i,-14,-4,-10,
NNC(=O)c1ccc(Oc2cc(Cl)cc(Cl)c2)o1,1,9,5,nt,i,9,2,nt,
COc1cc(S(=O)(=O)N2CCC(C(N)=O)CC2)c(C)cc1C,-1,5,nt,-8,i,3,1,10,
COc1ccccc1CC(=O)Nc1cccc(C(=O)Nc2nccs2)c1,-2,-4,16,-9,i,3,1,-6,
Cc1ccn2c(C(=O)NN=C3CCCCCCC3)c(C)nc2c1,4,4,23,nt,i,-6,-2,13,
COCCOC(=O)C1=C(C)OC(N)=C(C#N)C1c1ccc2c(c1)OCO2 (stereo unspecified),-1,3,nt,-7,i,-8,0,7,
Cc1ccc(NC(=O)CCN2C(=O)NC3(CCCC3)C2=O)cc1,4,6,4,-10,nt,nt,nt,nt,
COc1ccc(C(=O)OCC(=O)NCCCc2ccccc2)c(OC)c1,0,1,-2,-6,i,-2,-5,-10,
O=C(O)C1(P(=O)(c2ccc(Cl)cc2)c2ccc(Cl)cc2)CC1,-4,-2,-6,nt,i,2,2,-5,
Cc1ccc(OCCCC(=O)ON=C(N)c2ccccc2C)cc1,-2,-1,-3,-14,nt,nt,nt,-13,
COc1cc(-c2nc3c4ccccc4nc(=S)n3[nH]2)cc(OC)c1OC,29,0,9,-22,i,4,2,-20,
Cc1nnsc1-c1nnc(SCC(=O)c2ccc(F)cc2)n1C1CC1,0,2,-10,-15,i,6,-3,-10,
CC(C)NC(=S)N/N=C1\CCCCC1C1CCCCC1 (stereo unspecified),0,1,23,-10,i,-3,3,8,

# (more compounds)
SMILES,MT1-MMP act inh,MT1-MMP act inh RFP,Env fusion inh,Yeast UUG start,Rce1 inhib,PABP FP inh,eIF4H FP inh,CSC inhib,others
CC(C)(C)NC(=O)CN(C(=O)C(=O)Nc1ccc2c(c1)OCCO2)C1CCCC1,2,4,0,24,i,14,3,-13,
COc1ccc(CN(C)C[C@@H]2OCc3cnnn3CCCC(=O)N([C@H](C)CO)C[C@H]2C)cc1,0,4,-14,-10&1,nt,nt,nt,nt,
CCN(CC)C(=O)Cn1cc(C(=O)C(=O)Nc2ccc3c(c2)OCO3)c2ccccc21,7,1,-6,-18,nt,nt,nt,nt,
CCc1ccc(/C=C2\SC(=S)N(CCCC(=O)N3CCN(C)CC3)C2=O)cc1,11,4,27,-67,nt,nt,nt,nt,
CN(C(=S)NC(=O)CCCOc1ccc(Cl)cc1Cl)c1ccccc1,4,8,nt,nt,i,13,6,nt,
COc1ccc(S(=O)(=O)N2CCN(C(=O)NC3CCCCC3)CC2)cc1OC,5,3,nt,-11,i,-1,8,7,
CC(C)C[C@H](NC(=O)N1CCCCCC1)C(=O)O,3,-1,-8,nt,i,-6,-10,16,
CCOC(=O)C1=C(COC(=O)c2cccc(NC(C)=O)c2)NC(=O)NC1C (stereo unspecified),4,-4,nt,-21,i,nt,nt,8,
CCN(CC)S(=O)(=O)c1ccc(N(C)C)c(NC(=O)C2CCCC2)c1,1,1,40,-6,i,-5,2,-6,
CC1=Nc2cc(C(=O)NCCCN3CCN(C)CC3)ccc2Sc2ccc(C)cc21,3,7,9,-18,i,4,-6,13,
COc1ccc(NC(=O)C2C3C=CC(C3)C2C(=O)O)cc1 (stereo unspecified),1,4,2,4,i,-1,9,-3,
O=C(COC(=O)Cc1c[nH]c2ccccc12)NC1CCS(=O)(=O)C1 (stereo unspecified),2,1,-3,9,i,nt,nt,-7,
O=C1CCCCC1(c1ccccc1)c1ccccc1,-2,0,-5,-15,nt,nt,nt,nt,
O=[N+]([O-])c1cn(-c2nc(-c3ccco3)cc(C(F)(F)F)n2)cn1,2,1,-42,-10,i,-1,-13,-6,
CCN(CC(=O)Nc1ccc(NC(C)=O)cc1)C(=O)c1cccc(S(=O)(=O)N2CCCC2)c1,0,3,-35,nt,i,nt,nt,-6,
CC(C)c1ccc(CC(NC(=O)c2ccccc2)C(=O)NCC(=O)O)cc1 (stereo unspecified),-2,-1,-1,nt,i,1,-2,3,
CC(C(=O)N1CCN(C(=O)c2ccco2)CC1)n1sc2ccccc2c1=O (stereo unspecified),-2,0,3,1,i,-2,5,-1,
O=C(COC(=O)c1ccc(Cl)nc1)NC(=O)c1ccc(OC(F)F)cc1,-1,6,-4,0,i,nt,nt,-11,
COc1c(C(=O)Nc2c(C)n(C)n(-c3ccccc3)c2=O)ccc2ccccc12,1,2,6,-13,i,7,-8,-2,
Cc1ccc(-c2nc3ccccc3c(=O)n2N)cc1,-1,-2,-1,-10,i,4,3,-12,
C/C(=N\NC(=O)CSCc1ccc([N+](=O)[O-])cc1)c1ccccc1O,-1,-2,nt,-7,i,1,-1,8,
